Screening results (PubChem BioAssay)
Menin MLL FP FL = inhibitors of human menin-MLL interaction, wild-type MLL peptide; Fluorescence polarization, fluorescein-MLL peptide displacement from menin; FP activity change, % at 61.4 µM; 290,000 tested, under 10 active; AID 1766; inconclusive = falling polarisation curve, or a change in total fluorescence; inactive = total fluorescence flat and polarisation flat or rising; no compound was filed as active; the % refers to the polarisation; negative = inhibition;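 also: % of control where 0% means no effect; inhibitors lower the polarisation; unlabelled MLL peptide was the positive control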
gsp antag = gsp mutant antagonism; gsp-mutant cells, cAMP HTRF, 30 min; control for the full effect not named in the record; Potency, µM (highest dose often 76.9 µM), for the others: at the top dose activity change, negative = inhibition, hits mostly inhibitors; 340,000 tested, 0.4% active; AID 624288; active = falling curve of any shape with a large fitted effect; inconclusive = falling curve, mostly with a smaller effect; inactive = flat or rising curve; cell line not stated here;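 also: intracellular cAMP measured with PDE inhibitor Ro 20-1724 present during compound exposure; potency is read from the fitted curve at half-maximal effect; % is scaled to controls: 0 for no effect and ±100 for the full control effect; nearly all actives have a fitted effect of over 65% in size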
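Cells in G418 medium, seeded 16-24 h, 37C; buffer exchange to DPBS + 1 mM CaCl2, 0.5 mM MgCl2, 0.05% BSA; cpds in DMSO + […] (300 uM stock), 30 min 37C; HTRF cAMP detection.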
TRPV1 potentiator = enhances activation of the human vanilloid receptor TRPV1; TRPV1-expressing cells, Fluo-8 calcium influx, capsaicin EC20 potentiation; host cell line not named in the record; control for the full effect not named in the record; AID 540277; potentiation, % at 8.33 µM; 320,000 tested, 0.02% active; active means potentiation above 80%; inconclusive means 30% to 80%; inactive means below 30%; also: 0% is about no effect
Target sequence (Q8NER1 whole entry, looked up): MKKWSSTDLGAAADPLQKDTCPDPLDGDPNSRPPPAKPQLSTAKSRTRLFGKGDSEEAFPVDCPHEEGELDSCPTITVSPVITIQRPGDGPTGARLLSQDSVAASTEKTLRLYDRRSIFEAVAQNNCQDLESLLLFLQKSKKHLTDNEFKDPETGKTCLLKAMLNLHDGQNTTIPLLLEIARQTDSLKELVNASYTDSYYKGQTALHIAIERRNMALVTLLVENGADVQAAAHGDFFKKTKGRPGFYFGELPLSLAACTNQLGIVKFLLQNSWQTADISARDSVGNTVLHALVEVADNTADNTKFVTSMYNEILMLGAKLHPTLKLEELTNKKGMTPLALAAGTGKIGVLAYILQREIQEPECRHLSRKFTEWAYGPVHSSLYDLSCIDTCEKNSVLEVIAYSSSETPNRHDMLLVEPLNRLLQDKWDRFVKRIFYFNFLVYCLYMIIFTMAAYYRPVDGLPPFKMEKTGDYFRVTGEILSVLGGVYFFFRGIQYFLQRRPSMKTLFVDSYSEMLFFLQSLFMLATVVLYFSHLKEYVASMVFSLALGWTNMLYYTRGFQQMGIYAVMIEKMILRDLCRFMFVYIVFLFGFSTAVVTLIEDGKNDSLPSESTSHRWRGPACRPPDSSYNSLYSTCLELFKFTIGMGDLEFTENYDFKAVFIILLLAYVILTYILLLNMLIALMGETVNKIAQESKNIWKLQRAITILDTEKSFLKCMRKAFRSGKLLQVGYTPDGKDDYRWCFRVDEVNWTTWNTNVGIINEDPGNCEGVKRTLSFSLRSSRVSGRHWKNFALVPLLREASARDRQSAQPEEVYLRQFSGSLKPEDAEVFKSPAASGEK
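Cells expressing TRPV1 were dye-loaded with Fluo-8 and read kinetically: 10 s baseline, 3 min after compound (agonist portion), then 2 min after EC20 capsaicin (allosteric enhancer portion). Calcium-bound dye fluorescence at 480/520 nm.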
gsp ag = agonists of gsp mutant (McCune-Albright syndrome). Potency, µM (titrated, usually from 76.9 µM), for the others: at the top dose activation (cAMP increase), most hits filed as activators. AID 624287. 340,000 tested, 0.13% active. gsp mutant cells, cAMP HTRF, 30 min; control for the full effect not named in the record; active = well fitted activation curve with a large enough effect; inconclusive = small, poorly fitted or top-dose-only effect, or another doubt; inactive = no such curve, though single readings can be large or run the other way; cell line not stated here;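 also: phosphodiesterase inhibitor Ro 20-1724 added with compounds to block cAMP breakdown; potency is read from the fitted curve at half-maximal effect; nearly all actives have a fitted effect of over 60% in size; about a fifth of the inactives were tested at one dose only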
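Cells stably selected in G418 were plated at 2000/well, grown 16-24 hr, then given compounds in DMSO with the PDE inhibitor […] (300 uM solution added) for 30 min at 37C; cAMP was read by HTRF.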
ClpP mod = qHTS Assay for Activators of ClpP | ATP-dependent Clp protease proteolytic subunit (Bacillus subtilis (strain 168)), P80244 | purified B. subtilis ClpP, FRET peptide cleavage, 20 min | Potency, µM (highest dose often 57.5 µM), without a hit: at the highest dose activity change, negative = active | 340,000 tested, 1.9% active | AID 651965, 2013; active = well fitted falling curve with a large enough effect; inconclusive = small, poorly fitted or top-dose-only effect; inactive = no such curve, though single readings can be large or run the other way; also: potency is read from the fitted curve at half-maximal effect; the source files actives as falling curves though it sought activators and does not explain the sign; nearly all actives have a fitted effect of over 65% in size; many hits overshoot -100%
Target sequence (P80244 whole entry, looked up): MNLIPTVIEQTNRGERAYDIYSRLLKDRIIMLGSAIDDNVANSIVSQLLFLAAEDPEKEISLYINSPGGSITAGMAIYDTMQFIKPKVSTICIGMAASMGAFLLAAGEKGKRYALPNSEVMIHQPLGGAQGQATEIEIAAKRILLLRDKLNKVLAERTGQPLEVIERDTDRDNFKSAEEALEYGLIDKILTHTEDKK
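ClpP 10 microg/mL final, pH 8 Tris/KCl buffer with BSA, glycerol, Tween-20; compound pinned in; FRET-FV substrate; RT 20 min; Ex320/Em430; ΔFRET vs ADEP 5.8 microM, DMSO, no enzyme.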
CtBP-E1A blk = blocks the CtBP interaction with E1A | AlphaScreen GST-E1A/His-CtBP binding, 1536-well; stronger effect = lower value; control for the full effect not named in the record | activity change, % (concentration not given with the values) | 340,000 tested, 0.49% active; in the data active means activity change below about -65%; inconclusive means about -30% to -65%; inactive means above about -30%; also: % is scaled to controls: 0 for no effect and ±100 for the full control effect
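Protein mix (5X: 125 nM each GST-E1A, His-CtBP) was incubated with pinned compound 2 h at 37 deg C in dark, in 50 mM Tris pH 8.0 buffer with 300 mM NaCl. Glutathione donor and nickel acceptor beads followed; AlphaScreen signal read after 1 h.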
Sfp inh = Sfp phosphopantetheinyl transferase inhibition; Biochemical Sfp PPTase activity, qHTS; Potency, µM, inactives show max response, negative = inhibition, usual class: inhibitors; AID 1490; 310,000 tested, 3.5% active; Q9F4F7; active = well fitted inhibition curve with a large enough effect; inconclusive = small, poorly fitted or top-dose-only effect, or another doubt; inactive = no such curve, though single readings can be large or run the other way;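 also: the enzyme is Sfp with the accession as filed and its product quenches rhodamine fluorescence; potency is read from the fitted curve at half-maximal effect; 0% = enzyme reaction without inhibitor and -100% = no enzyme wells; top concentration of the series not given in the record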
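Sfp 15 nM + cpd, 15 min RT; start w/ rhodamine-CoA 5 uM, BHQ-2-YbbR 12.5 uM (final); 50 mM Hepes pH 7.6, 10 mM MgCl2, 0.01% NP-40, 0.01% BSA; read 525/598 nm at 0 and 30 min.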
* hit, by the source's call; u = inconclusive; x = not tested or not shown; & = joins results of further samples; [ ] = dose if it differs, or a comment.

structure	Menin MLL FP FL	gsp antag	TRPV1 potentiator	gsp ag	ClpP mod	CtBP-E1A blk	Sfp inh
COc1cc2nc(=S)n3[nH]c(CCn4nc(C)cc4C)nc3c2cc1OC	1.8	-9%	11	-27%	-3.4%	u	u
Cc1ccsc1/C=C1/SC(N2CC(C)OC(C)C2)=NC1=O (stereo not drawn)	3.8	-23%	-28	-20%[15.4 µM]	-11%	-7	56µM*
CCn1c(N2CCN(CC(=O)c3c[nH]c4ccccc34)CC2)nc2c1c(=O)[nH]c(=O)n2C	4.7	-21%	5	-29%	-1.7%	-4	-10%
COc1cccc(C(=O)N2CCN(C(=O)c3cccc(F)c3)CC2)c1	5.3	-1%	12	10%	-1.1%	10	15%
Cc1ccc(-c2nn(C)c(=O)c3ccccc23)cc1CNC(=O)Cn1nc(-c2ccccc2)c2ccccc2c1=O	-0.3	x	6	x	x	x	4%
CN(CC(=O)Nc1c(Cl)cccc1Cl)C(=O)c1ccccc1Cc1ccccc1	x	-18%	-7	-60%[inhibitor]	2.2%	0	x
COc1cc(Nc2nc(-c3ccccc3)c3cc(C)ccc3n2)cc(OC)c1OC	u	-15%	26	4%	-0.6%	u	-26%
C[C@@H]1CN([C@@H](C)CO)C(=O)CCCn2nncc2CO[C@@H]1CN(C)C(=O)Nc1cccc(Oc2ccccn2)c1	x	x	x	-56%[inhibitor]	0.7%	6	x
O=C1CC2(CCN(C(=O)C3CC(=O)N(c4ccc(F)cc4)C3)CC2)Oc2ccccc21 (stereo not drawn)	x	-6%	7	24%[15.4 µM]	u	-3	x
CCNC(=O)C(CC(C)C)NC(=O)C(CO)NC(=O)C1CCC(=O)N1 (stereo not drawn)	1.6	9%	1	2%	-1.2%	1	16%
CCc1noc(C)c1C(=O)N1CCN(S(=O)(=O)c2ccc(Br)cc2Cl)CC1	x	4%	-1	-23%[15.4 µM]	1.6%	-8	x
Cc1cc(NC(=O)CCN2C(=O)C3C4CCC(C4)C3C2=O)c(C)cc1Br (stereo not drawn)	-1.5	-36%	-7	-6%	-0.1%	8	-3%
CCOC(=O)C1CCCN(C(=O)c2ccc3oc(CCc4ccccc4)nc3c2)C1 (stereo not drawn)	x	-17%	0	-33%[inhibitor]	3.0%	x	1%
Cc1ccc(CN2CCN(c3ncccn3)CC2)c(C)c1	13	8%	-7	-1%	x	0	-11%
Cc1nc(N)nc(Nc2ccc(C#N)cc2)c1Br	-0.6	6%	-5	1%[15.4 µM]	x	-12	1%

Complete entries from above. Order of values: Menin MLL FP FL	gsp antag	TRPV1 potentiator	gsp ag	ClpP mod	CtBP-E1A blk	Sfp inh
C[C@@H]1CN([C@@H](C)CO)C(=O)CCCn2nncc2CO[C@@H]1CN(C)C(=O)Nc1cccc(Oc2ccccn2)c1 as listed: x	x	x	-56%[inhibitor]	0.7%	6	x
COc1cc2nc(=S)n3[nH]c(CCn4nc(C)cc4C)nc3c2cc1OC as listed: 1.8	-9%	11	-27%	-3.4%	u	u
CCc1noc(C)c1C(=O)N1CCN(S(=O)(=O)c2ccc(Br)cc2Cl)CC1 as listed: x	4%	-1	-23%[15.4 µM]	1.6%	-8	x
CCNC(=O)C(CC(C)C)NC(=O)C(CO)NC(=O)C1CCC(=O)N1 (stereo not drawn) as listed: 1.6	9%	1	2%	-1.2%	1	16%

(cont.)
structure	Menin MLL FP FL	gsp antag	TRPV1 potentiator	gsp ag	ClpP mod	CtBP-E1A blk	Sfp inh
Cn1cnc2c(ncn2C2OC(CO)C(O)C2O)c1=S (stereo not drawn)	x	2%	x	-26%	x	-11	x
COc1cccc(N2CC(=O)Nc3c(oc4nc(-c5ccccc5)cc(C)c34)C2=O)c1	4.1	-15%	9	13%	-28%	x	-4%
Cc1cccc(C(=O)OCC(=O)Nc2c(C)n(C)n(-c3ccccc3)c2=O)c1	x	6%	4	-32%[inhibitor]	-4.2%	0	x
C[C@@H]1CN([C@H](C)CO)C(=O)CCCn2nncc2CO[C@H]1CN(C)S(=O)(=O)c1cn(C)cn1	x	x	x	-40%[inhibitor]	1.2%	0	x
O=C(O)CC(NC(=O)OCc1ccccc1)c1ccc(Br)cc1 (stereo not drawn)	3.1	2%	-31	0%	-0.6%	4	25%
O=C(C[C@H]1C(=O)N(Cc2ccccc2)C[C@@H]1Cc1ccccc1)Nc1ccccc1	-2.3	-13%	6	-4%	1.8%&4.4%	0	15%
COc1ccc(-c2ccc(C(C)=O)cc2)cc1[C@H]1[C@@H]2C=CCC[C@@]2(C)C(=O)N1Cc1ccccc1	2.8	-1%	u	x	u	-12	u
O=C(NCc1ccccn1)c1ccc(CNS(=O)(=O)c2ccc(F)cc2)cc1	1.1	-15%	-2	18%	-1.0%	-3	23%
CC(=O)c1ccc(NC(=O)CSCC(=O)Nc2ccc3ccccc3c2)cc1	-0.6	-10%	-7	24%	0.1%	7	5%
COC(=O)c1cccnc1-n1c(=O)c2cccnc2n(Cc2cccc(OC)c2)c1=O	3.3	-5%	x	-2%	-10%	0	10%
COc1ccc(C(=O)Cn2nnc(-c3cccs3)n2)cc1	4.5	-3%	-13	7%	0.7%	2	-11%
CC1NC(C)c2c(ccc3ccccc23)O1 (stereo not drawn)	x	7%	x	-3%	x	-19	x
COCCCNC(=O)CCC(=O)Nc1ccc2nc(N3CCOCC3)cc(C)c2c1	-0.9	-6%	11	-17%	74%	6	21%
O=C(c1ccc(S(=O)(=O)N2CCC(c3nc4ccccc4s3)CC2)cc1)N1CCOCC1	4.8	-3%	4	-6%	-3.2%	-7	u
COc1cccc(NC(=O)CSc2nc3ccccc3c(=O)n2CCCC(=O)N2CCCC2)c1	3.7	u	6	u	-0.9%	-21	6%

Of the compounds above, 2 contain a thiophene ring, fused or not.
structure	Menin MLL FP FL	gsp antag	TRPV1 potentiator	gsp ag	ClpP mod	CtBP-E1A blk	Sfp inh
Cc1ccsc1/C=C1/SC(N2CC(C)OC(C)C2)=NC1=O (stereo not drawn)	3.8	-23%	-28	-20%[15.4 µM]	-11%	-7	56µM*
COc1ccc(C(=O)Cn2nnc(-c3cccs3)n2)cc1	4.5	-3%	-13	7%	0.7%	2	-11%

(cont.)
structure	Menin MLL FP FL	gsp antag	TRPV1 potentiator	gsp ag	ClpP mod	CtBP-E1A blk	Sfp inh
Cc1ccccc1-c1cccc([C@@H]2C[C@H]3[C@H](CON3C)CN2C)c1	x	8%	x	x	0.5%	0	x
COCCn1c(SCC(=O)N(C)C2CCS(=O)(=O)C2)nc2ccccc2c1=O (stereo not drawn)	-4.9	11%	-2	-4%[15.4 µM]	-0.5%	6	-5%
COc1ccc(-c2nn(-c3ccccc3)cc2/C=C(\C#N)C(N)=O)cc1[N+](=O)[O-]	-0.5	-5%	19	-1%[15.4 µM]	x	x	12%
CN1CCOc2cc(S(=O)(=O)Nc3ccc(F)cc3)ccc21	-1.9	-8%	13	3%	-0.4%	0	3%
O=S(=O)(NCCS(=O)(=O)N1CCN(c2ccccc2)CC1)c1ccccc1	-13	13%	3	u	1.6%&-4.6%	-17	17%
O=C(Cc1cccs1)NNC(=S)NC(=O)c1ccc(F)c(F)c1	4.5	3%	9	16%[15.4 µM]	1.0%	-1	-27%
CCc1ccc(N/C(N)=N/c2nc(CSc3ncccn3)cc(=O)[nH]2)cc1	-4.3	-7%	3	10%[15.4 µM]	x	x	3%
COc1ccc2c(C)cc(SCC(=O)NC3CCCC3)nc2c1	x	14%	x	11µM*	-27%	x	x
COc1ccc(CC(NC(C)=O)C(=O)N2CCN(C(=O)Nc3cccc(Cl)c3)CC2)cc1OC (stereo not drawn)	-0.1	2%	-2	4%	1.3%	2	11%
Cc1ccc(NC(=O)c2cc([N+](=O)[O-])ccc2N2CCOCC2)cc1S(=O)(=O)N(C)C	3.4	-7%	-12	1%[15.4 µM]	x	-10	7%
CC1(C)CC2CC(C)(CN2C(=O)c2cc(-c3ccc(F)cc3)on2)C1 (stereo not drawn)	-1.5	2%	-8	6%	x	-1	-6%
Cc1cccc(N2CCN(C(=O)COc3ccc4c(C)cc(=O)oc4c3C)CC2)c1C	x	-19%	6	11%	x	-5	-3%
Cc1cc2ccccc2c(=O)n1CC(=O)NCC(=O)N(C)C1CCCCC1	-5.0	10%	5	-26%	u	11	10%
Cc1ccc(C(=O)COC(=O)C(C)N2C(=O)C3C4C=CC(C4)C3C2=O)cc1C (stereo not drawn)	x	3%	-7	19%	1.0%	6	7%
Cc1ccc2nc(Cl)c(CN(C(=O)c3cnccn3)C3CCCCC3)cc2c1	-2.8	-14%	x	-24%	0.0%	-4	-5%
CCOc1ccc(C(C(=O)NC(C)(C)C)N(CCOC)C(=O)CCC(=O)Nc2nccs2)cc1 (stereo not drawn)	4.4	-2%	-4	5%	x	4	5%
COc1ccc(/C=C2\SC(=O)N(CC(=O)NC3CCS(=O)(=O)C3)C2=O)cc1 (stereo not drawn)	-1.5	8%	9	-29%	-5.3%	-20	u
CCOCN(C(=O)Cn1c(C(C)O)nc2ccccc21)c1c(C)cccc1CC (stereo not drawn)	4.7	-4%	-7	0%	-2.6%	4	-1%

Not a hit list; 5.3% or so of the library scored in one or more.
